# GIV Gai3 FP = blocks GIV peptide binding to rat Galpha-i3 | percent of control (FP), % (no concentration beside the values) | Galpha-i3/FITC-GIV peptide fluorescence polarization, 90 min; active compounds read low; scaled: aluminum fluoride 0%, vehicle 100% | P08753 | hit rate 0.42% among 210,000;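 active = replicate mean at 85% of control or lower, very high polarization wells dropped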;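 note: wells of about 15 µL received 100 nL stock; the first replicate is given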
# Target sequence (P08753 whole entry, looked up): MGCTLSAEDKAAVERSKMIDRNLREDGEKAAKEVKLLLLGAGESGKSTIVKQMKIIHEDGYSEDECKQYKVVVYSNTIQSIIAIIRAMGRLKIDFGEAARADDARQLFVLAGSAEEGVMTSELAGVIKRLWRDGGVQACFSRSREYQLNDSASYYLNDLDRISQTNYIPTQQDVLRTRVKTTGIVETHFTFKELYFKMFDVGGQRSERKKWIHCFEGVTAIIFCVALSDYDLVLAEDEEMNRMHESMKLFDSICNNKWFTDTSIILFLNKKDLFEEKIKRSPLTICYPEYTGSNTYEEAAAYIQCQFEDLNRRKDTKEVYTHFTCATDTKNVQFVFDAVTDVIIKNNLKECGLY
# Starred values were filed as active, the others as inactive. An excerpt. The share of hits here may be higher or lower than overall.
GIV Gai3 FP	compound
109	S=C1NC(c2ccccc2)=CC(c2ccc(Br)cc2)N1 (centres undefined)
119	COc1cccc2cc(-c3csc(NC(=O)CCC(=O)NCc4ccc5c(c4)OCO5)n3)c(=O)oc12
110	O=C(Nc1cc(F)c2nc(N3CCCCC3)ccc2c1)C1CCCC1
107	Cc1ccccc1N=C1c2ccccc2-c2nc3ccccc3cc21
100	Cc1cc(N)nn1C(=O)CSc1nc2cc(C(=O)NCCCOC(C)C)ccc2c(=O)n1Cc1ccco1
114	Cc1cnc2c(c1)C(=Nc1cccc3ccccc13)c1cccc(C)c1-2
110	COc1cc(C2Nc3ccc4ccccc4c3C3=C2C(=O)CC(C)(C)C3)cc(I)c1OCc1ccc(Cl)cc1 (centres undefined)
109	Cc1ccccc1Nc1cc(N2CCCC2)c2noc3c2c1C(=O)c1ccccc1-3
101	Cc1ccc2c(c1)C(C)(C)C1(/C=C/c3cccnc3)NC(=O)CCN21 (centres undefined)
106	CC(C)C(=O)Nc1nnc(SCc2nnc(-c3ccccc3)o2)s1
100	O=S(=O)(c1cc(-c2nnc(C3CCCC3)o2)co1)N1CCCCC1
114	CCCCOC(=O)C(CCCC)N1C(=O)C2C3c4ccccc4C(c4ccccc43)C2C1=O (centres undefined)
106	CC(=O)C1=NN(c2cccc(Cl)c2C)C2(S1)c1ccccc1C(c1ccc(Cl)cc1)=NN2c1ccccc1 (centres undefined)
117	CC1CCN(CN2C(=O)C3(OCC(CO)([N+](=O)[O-])CO3)c3ccccc32)CC1 (centres undefined)
105	O=C(C1CCN(c2ncnc3c2oc2ccccc23)CC1)N1CCN(c2ccccc2)CC1
104	CC(C)(C)C(=O)N1CCC(c2cc(N)on2)CC1
98	Cc1ccc(-n2ncc3c(Nc4ccc(Br)cc4)ncnc32)cc1
108	CCCn1c(SCc2nc(-c3ccccc3)no2)nc2cc3c(cc2c1=O)OCO3
106	Cc1cc(C)c(NC(=O)CSC2=C(C#N)C(c3ccco3)C3=C(CCCC3=O)N2)c(C)c1 (centres undefined)
110	Cc1nc(-c2cc3cc(Cl)ccc3oc2=O)cc2c1c(=O)oc1ccc(Cl)cc12
98	N#CC1=CN(c2cc(F)cc(F)c2)c2ccc(F)cc2S1(=O)=O
100	CCCc1ccc(S(=O)(=O)N2CCCC2c2nc(-c3ccc(F)cc3)no2)cc1 (centres undefined)
101	COc1ccc(N2C(=O)CSC2c2cc3c(cc2Br)OCO3)cc1 (centres undefined)
102	CCCn1c(=O)c(C(=O)Nc2nc3ccc(Cl)cc3s2)c(O)c2ccccc21
104	CN1CCSc2ccc(C(=O)Nc3ccc(Cl)cc3)cc21
99	Cc1c2c(nn1-c1ccc(SCc3ccccc3Cl)nn1)CCC2
102	COc1ccc(C2/C(=C(\O)c3ccc(Cl)cc3)C(=O)C(=O)N2CCO)cc1OC (centres undefined)
109	COc1ccccc1-n1c(=O)c2c(n3c(=S)[nH]nc13)-c1ccccc1CC21CCCCC1
105	CCCCNc1nc(SCC(=O)NCCCOC)nc2ccccc12
104	Cc1c(C(=O)NC(C)c2ccccc2)sc2ncnc(N3CCN(c4ccccn4)CC3)c12 (centres undefined)
103	Cc1cccc(-c2cnc(Nc3cccc(C(=O)NC4CCCCC4)c3)nc2)c1
107	O=C1C2OCC(O2)[C@@H]2[C@@H]1[C@@H]1c3ccccc3C=CN1[C@@H]2C(=O)C12CC3CC(CC(C3)C1)C2 (some centres undefined)
112	COc1ccc(CCNC(=O)CSc2nc3ccccc3c(=O)n2CCC(=O)NC2CCCCC2)cc1OC
104	Cc1cc(Sc2ccc(NC(=O)C(C)(C)C)cc2)n2ncnc2n1
101	CN1CCCN(c2nc(N)c3ccccc3n2)CC1
114	COc1ccc(C2(O)CN(c3cc(OC)ccc3OC)C3=[N+]2CCCS3)c(F)c1 (centres undefined)
98	CCOC(=O)C1CCN(c2ccc([N+](=O)[O-])cc2C(=O)Nc2ccc(OC(F)(F)F)cc2)CC1
110	COc1ccc(-n2nc3c(c2NC(=O)/C=C\c2cc(OC)c(OC)c(OC)c2)CS(=O)(=O)C3)cc1
108	Cc1[nH]n(-c2ccc([N+](=O)[O-])cc2)c(=O)c1C=NCCN1CCN(C(=O)C(C)C)CC1
108	COc1ccc(-c2nnc3ccc4ccccc4n23)c(OC)c1
109	Cc1[nH]n(-c2ccccc2)c(=O)c1C(c1ccc(OC(=O)c2ccc(Cl)cc2)cc1)c1c(C)[nH]n(-c2ccccc2)c1=O
105	COC(=O)c1ccccc1NC(=O)CSc1nnc(SCC(=O)Nc2ccccc2C(=O)OC)s1
102	C=CCOC(=O)C1=C(C)NC(SCC(=O)Nc2cccc(C(C)=O)c2)=C(C#N)C1c1cccs1 (centres undefined)
108	COC(=O)C1C(=O)NC(SCC(=O)Nc2ccccc2C)=C(C#N)C1c1ccccc1F (centres undefined)
100	Cc1cc(C2CCCN2S(=O)(=O)c2ccc(Cl)cc2)on1 (centres undefined)
111	CCOC(=O)c1c(CNc2ccccc2C(N)=O)n(C)c2cc(Br)c(OC(C)=O)cc12
118	COc1cccc(C2(O)CC(C(F)(F)F)=NN2C(=O)c2ccccn2)c1 (centres undefined)
110	Cc1ccc(N(C)S(=O)(=O)c2c(C)sc(C)c2-c2cc(C(F)(F)F)on2)cc1C
92	Cc1cc(C2CCCN2C(=O)c2c(Br)cnn2C)on1 (centres undefined)
109	COc1ccc(C2/C(=C(\O)c3ccccc3)C(=O)C(=O)N2c2ccc(C)cc2)cc1OC (centres undefined)

# The list continues.
GIV Gai3 FP	compound
106	Cc1ccc(-c2cc(C(F)(F)F)n3nc(C(=O)NC(C)(C)C)nc3n2)cc1
102	Cc1c(C(=O)NCc2ccco2)sc2ncnc(N3CCc4ccccc4C3)c12
108	CCCNC(=O)CN1c2ccccc2NC2=C(C(=O)CCC2)C1c1cccs1 (centres undefined)
106	CC1Cc2ccccc2N1C(=O)CN1C(=O)CN(C)C(=O)c2ccccc21 (centres undefined)
96	Cc1ccc(NC(=O)Cn2cnc3sc4c(c3c2=O)CCC4)cc1Cl
108	O=C(NCCCN1CCC(Cc2ccccc2)CC1)c1cc(-c2ccncc2)nc2ccccc12
105	CCOc1c(Br)cc(C2C(C(=O)OC)=CN(Cc3ccc(OC)c(OC)c3)C=C2C(=O)OC)cc1OC
105	COC(=O)c1c(-c2ccc(Cl)cc2)noc1NC1CCCC1
91	CCc1ccccc1NC(=O)NC1CCN(c2nc3ccccc3n(C)c2=O)CC1
110	COc1ccccc1C(=O)N1c2ccccc2CCc2ccccc21
104	O=C(CCc1nc(CSc2nc3ccccc3s2)no1)Nc1nc(-c2ccccc2)cs1
110	COc1ccc(/C=c2/sc3nc(=O)cnn3c2=O)cc1
101	CCOC(=O)c1csc(NC(=O)c2ccc(S(=O)(=O)N3CCc4ccccc43)cc2)n1
100	CC(=O)N1CCN(C(=O)c2ccc(NCc3ccc(F)cc3)c(S(=O)(=O)Nc3cccc(C(F)(F)F)c3)c2)CC1
97	Cc1[nH]nc2nc(SCC(=O)NCCc3ccc(S(N)(=O)=O)cc3)n(-c3ccc(Br)cc3)c(=N)c12
105	CC(C)Nc1ccc2nnc(C(C)C)n2n1
110	O=C(CCN1C(=O)c2ccccc2C1=O)N1CCN(c2ccccn2)CC1
99	O=C(c1ccoc1)N1CCCC(Nc2ncnc3c2CCC3)C1 (centres undefined)
105	CCCn1cnc2sc(C(=O)NCCN3CCOCC3)c(C)c2c1=O
106	CCOC(=O)c1c(NC(=O)C(C)Sc2nnc(CNC(=O)c3cc(OC)cc(OC)c3)n2C)sc2c1CCCC2 (centres undefined)
109	CCOc1ccccc1N(C)S(=O)(=O)c1ccc2[nH]cc(C(=O)N3CCc4ccccc4C3)c(=O)c2c1
125	COCCOC(=O)C1=C(C)NC2=C(C(=O)CC(c3cccs3)C2)C1c1ccc(C(F)(F)F)cc1 (centres undefined)
105	CNC(=O)C1CCN(c2nc3ncn(CC(=O)NCC4CCCO4)c(=O)c3s2)CC1 (centres undefined)
106	CCOC(=O)C1=CN(Cc2ccc(OC)cc2)C=C(C(=O)OCC)C1c1cccc(OC)c1OC
103	CCOC(=O)C1=C(C)NC2=C(C(=O)C(C(=O)OCC)C(c3cccc(OC)c3)C2)C1c1ccc(OC)cc1OC (centres undefined)
105	Cc1cc(N2CCCCC2)nc(N2CCN(C(=O)CC3CCCC3)CC2)n1
98	Cc1c(-c2noc(C(=O)NCCc3ccc(S(N)(=O)=O)cc3)n2)oc2ccccc12
108	CCC(=O)Nc1ccc(-c2cc(C(=O)NCc3ccccn3)c3ccccc3n2)cc1
103	Cc1ccc(C(=O)NCc2ccc(S(=O)(=O)N3CCC(C)CC3)s2)s1
110	CSc1ccc(C2C(C#N)=C(N)OC(CSc3nc(C)c(C)c(C)c3C#N)=C2C(=O)OC(C)C)cc1 (centres undefined)
106	CCOC(=O)C1=C(C)N=c2s/c(=C\c3cccs3)c(=O)n2C1c1cc(OC)c(OC)cc1Br (centres undefined)
109	CCc1ccc(NC(=O)CSc2nc3ccccc3c(=O)n2CCC(=O)NCCc2ccc(OC)c(OC)c2)cc1
100	COc1ccccc1NC(=O)c1sc2ncnc(N3CCCCC3C)c2c1C (centres undefined)
115	CCOC(=O)C1=C(O)/C(=C/c2ccc(OC)cc2)SC1=Nc1ccc([N+](=O)[O-])cc1
103	CCOc1ccccc1NC(=O)N1CCC(N2CCN(Cc3ccc(F)cc3)C2=O)CC1
103	O=C(C1CC1)N1Cc2c(sc3c2CCCC3)-n2cccc2C1c1ccccc1 (centres undefined)
110	CCCS(=O)(=O)c1nc2ccc(NS(=O)(=O)c3ccc(F)cc3Cl)cc2s1
111	CCOC(=O)Cn1cc(CN2CCCC2c2cc(C(C)C)on2)c2ccccc21 (centres undefined)
111	CCc1nc2ccc(C(=O)NC3CCCC(C)C3C)cc2nc1CC (centres undefined)
101	Cc1ccc(S(=O)(=O)Nc2ccccc2-c2ccc3ccccc3n2)cc1
124	CC(C)(C)C(=O)[C@@H]1[C@@H](c2cccnc2)C(C#N)(C#N)[C@H]2C=Cc3ccccc3N12
96	CCOc1ccc(NS(=O)(=O)c2cc(-c3cc(C(F)(F)F)on3)sc2C)cc1
105	NC(=O)C1(N2CCCCC2)CCN(C(=O)c2ccc(Cn3c(=S)[nH]c4ccccc4c3=O)cc2)CC1
100	Cc1nn(C)c2c(=O)n(C(C)C(=O)NCc3ccc(N4CCN(C)CC4)cc3)ccc12 (centres undefined)
99	CCOc1ccc(Nc2nc(-c3cccnc3)nc3ccccc23)cc1
103	CS(=O)(=O)Nc1cccc(-c2cc3ccccc3[nH]2)c1
113	CC1(C)Nc2ccccc2-c2c1ssc2=S
100	N#CC1=CN(c2cccc(F)c2)c2cc(F)ccc2S1(=O)=O
112	CC(C)n1c(N2CCN(C(=O)C3CCCC3)CC2)cc(=O)n(C(C)C)c1=O
103	COc1cccc(NC(=O)Cn2c(=O)c(CCC(=O)NC3CCCC3)nc3ccccc32)c1

# Brought forward from above: four entries, then new ones.
GIV Gai3 FP	compound
113	CC1(C)Nc2ccccc2-c2c1ssc2=S
100	N#CC1=CN(c2cccc(F)c2)c2cc(F)ccc2S1(=O)=O
112	CC(C)n1c(N2CCN(C(=O)C3CCCC3)CC2)cc(=O)n(C(C)C)c1=O
103	COc1cccc(NC(=O)Cn2c(=O)c(CCC(=O)NC3CCCC3)nc3ccccc32)c1
102	CCOc1cc(C(=O)Nc2c3c(nn2-c2ccc(F)cc2)CS(=O)(=O)C3)cc(OCC)c1OCC
105	CCc1nccn1Cc1nc(CCOC)no1
103	CC(=O)Nc1ccc(N(C)CCCc2c(C)nn(C)c2C)c(C(=O)O)c1
98	NC(=O)Cn1cnc2c(sc3ncccc32)c1=O
108	CC(/C=N/NC(=O)c1nnn(-c2nonc2N)c1CN1CCCCCC1)c1ccccc1 (centres undefined)
109	Cc1cc(C)cc(N2C(=O)CSC23C(=O)Nc2ccccc23)c1 (centres undefined)
109	CCC1CCCCN1C(=O)c1sc2ncnc(N(CC)CC)c2c1C (centres undefined)
104	O=S(=O)(c1ccc(-c2nnc(C3CCCC3)o2)o1)N1CCCCC1
105	Cc1cc(C)[n+]2c(C)csc2n1
105	Fc1ccc(-c2nnc(-c3nc(NC4CCCCC4)c4ccccc4n3)o2)cc1
102	CCOC(=O)C1=CN(Cc2ccc(F)cc2)C=C(C(=O)OCC)C1c1cc(Br)ccc1OC
98	Cc1cc(C)cc(-n2ncc3c(N4CCCCC4)ncnc32)c1
108	CCOCCOC(=O)C(C)Oc1ccc2c(=O)c(Oc3ccccc3Cl)coc2c1 (centres undefined)
109	COc1ccc(Nc2c3c4c(c(Br)ccc4n(C)c2=O)C(=O)c2ccccc2-3)cc1
108	COc1ccc(CNS(=O)(=O)c2cc(-c3nc(C(C)(C)C)cs3)cs2)cc1

# Among those listed so far, these contain a Cl atom:
GIV Gai3 FP	compound
110	COc1cc(C2Nc3ccc4ccccc4c3C3=C2C(=O)CC(C)(C)C3)cc(I)c1OCc1ccc(Cl)cc1 (centres undefined)
106	CC(=O)C1=NN(c2cccc(Cl)c2C)C2(S1)c1ccccc1C(c1ccc(Cl)cc1)=NN2c1ccccc1 (centres undefined)
110	Cc1nc(-c2cc3cc(Cl)ccc3oc2=O)cc2c1c(=O)oc1ccc(Cl)cc12
102	CCCn1c(=O)c(C(=O)Nc2nc3ccc(Cl)cc3s2)c(O)c2ccccc21
104	CN1CCSc2ccc(C(=O)Nc3ccc(Cl)cc3)cc21
99	Cc1c2c(nn1-c1ccc(SCc3ccccc3Cl)nn1)CCC2
102	COc1ccc(C2/C(=C(\O)c3ccc(Cl)cc3)C(=O)C(=O)N2CCO)cc1OC (centres undefined)
109	Cc1[nH]n(-c2ccccc2)c(=O)c1C(c1ccc(OC(=O)c2ccc(Cl)cc2)cc1)c1c(C)[nH]n(-c2ccccc2)c1=O
100	Cc1cc(C2CCCN2S(=O)(=O)c2ccc(Cl)cc2)on1 (centres undefined)
96	Cc1ccc(NC(=O)Cn2cnc3sc4c(c3c2=O)CCC4)cc1Cl
105	COC(=O)c1c(-c2ccc(Cl)cc2)noc1NC1CCCC1
110	CCCS(=O)(=O)c1nc2ccc(NS(=O)(=O)c3ccc(F)cc3Cl)cc2s1
108	CCOCCOC(=O)C(C)Oc1ccc2c(=O)c(Oc3ccccc3Cl)coc2c1 (centres undefined)
